# VDR inh: vitamin D3 receptor (human) inhibition; P11473; VDR-SRC2-3 peptide fluorescence polarization, 2 h; Potency, µM, for the others: max response, negative = inhibition, most hits filed as inhibitors; 400,000 compounds, 0.93% hits; active means well fitted inhibition curve with a large enough effect; inconclusive means small, poorly fitted or top-dose-only effect, or another doubt; inactive means no such curve, though single readings can be large or run the other way; further: series mostly up to about 120 µM
# Target sequence (P11473 whole entry, looked up): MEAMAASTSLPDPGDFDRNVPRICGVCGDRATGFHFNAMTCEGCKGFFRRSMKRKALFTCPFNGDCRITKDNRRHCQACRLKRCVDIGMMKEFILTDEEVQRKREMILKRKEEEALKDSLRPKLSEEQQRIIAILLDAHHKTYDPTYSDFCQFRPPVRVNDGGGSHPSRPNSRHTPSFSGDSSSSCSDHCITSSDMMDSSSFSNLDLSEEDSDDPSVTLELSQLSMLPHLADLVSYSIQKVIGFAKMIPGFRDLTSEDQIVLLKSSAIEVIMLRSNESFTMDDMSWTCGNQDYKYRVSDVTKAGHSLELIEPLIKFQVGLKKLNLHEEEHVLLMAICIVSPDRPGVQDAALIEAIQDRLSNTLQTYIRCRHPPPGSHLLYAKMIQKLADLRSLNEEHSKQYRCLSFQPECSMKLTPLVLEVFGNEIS
#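 Inhibition of the VDR/SRC2-3 peptide interaction is quantified by fluorescence polarization. Compounds (23 nl, pintool) incubate with the reagents for 2 hours at ambient room temperature.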
# * hit, by the source's call; ? = inconclusive; & = joins results of further samples. On the % scale 0 is the no-effect control and ±100 the full control effect; potency means the concentration at half of the fitted maximal effect.
SMILES,VDR inh
CCc1ccc(CN2CCC(n3nccc3NC(=O)c3cccc(F)c3)CC2)cc1,-4.9%
Cc1ccc(NC(=O)c2ccc(Cl)c(S(=O)(=O)NCC3CCCO3)c2)c(O)c1 (stereo unspecified),-0.8%
Cc1c(C)n2c(SCC(=O)N3CCCC3)nnc2[nH]c1=O,-1.2%
COCCCNCC#CCOc1ccc(OC)cc1,-9.3%
O=C(CCNc1ccc(F)c(Cl)c1)c1ccco1,7.4%
C=CCNC(=O)c1c(CS(=O)(=O)c2ccccc2)noc1C(=O)NCc1ccccc1,-4.2%
C=CCc1cc(Cl)ccc1OCCOCCN(C)C,-2.5%
COC(=O)c1ccc(COn2c(=O)c(C)[n+]([O-])c3ccccc32)cc1,0.5%
CCOC(=O)c1cc(S(=O)(=O)N2CCN(Cc3ccccc3)CC2)cn1C,12.0%
CCOC(=O)c1c(C)c2c(n1C)CCC/C2=N\O,2.7%
Cc1ccc(C)c(/C=C2\CCn3c2nc2cc(C(=O)O)ccc2c3=O)c1,-0.8%
Cc1cccnc1NC1CCCCC1,-1.1%
Cn1c(=O)n(C)c2cc(S(=O)(=O)N3CCOCC3)ccc21,3.5%
Cc1ccc2c(=O)c(C(=O)c3ccc(F)cc3)cn(CC(=O)NCc3ccccc3)c2n1,8.9%
NC(=O)c1ccccc1NS(=O)(=O)c1ccc(F)cc1,1.1%
Cc1cc(OCC(=O)NNC(=S)NCC2CCCO2)cc(C)c1Cl (stereo unspecified),-12.8%
Cc1ccccc1NC(=O)c1cccc(C(=O)Nc2ccccc2C)n1,-0.5%
N#CC(C(=O)OC1CCCCC1)c1nc2ccccc2nc1N1CCOCC1 (stereo unspecified),4.5%
CN(C)C(=O)c1ccc(-c2nc(N(C)C)c3ccccc3n2)cc1,8.2%
O=C(c1ccco1)N1CCN(C(=O)C2CC(c3ccc(Cl)cc3)=NO2)CC1 (stereo unspecified),-21.7%
c1ccc(Cn2c(Nn3cnnc3)nc3ccccc32)cc1,-0.9%
COc1ccc2c(c1)[C@H]1[C@H](CO2)[C@H](c2ccccc2)[C@]2(C)C(=O)Nc3ccc(C)cc3C(=O)N12,9.6%
C=C(C)C(=O)OC[C@@H]1CCC[N@+]2(C)CCCCC12 (stereo partly specified),-10.8%
Cc1cc(C)c(C(=O)Nc2ccc(Br)c(C(F)(F)F)c2)c(C)c1,-13.2%
COc1nc(-c2ccccc2)c2cc(C)ccc2n1,?
COc1ccccc1C(=O)OC1CCCN(C)C1 (stereo unspecified),10.0%
Cc1c(NS(=O)(=O)c2ccc(N)cc2)c(=O)n(-c2ccccc2)n1C,-28.0%
O=C(O)c1cn(-c2ccc(F)cc2)c2cc(Cl)c(F)cc2c1=O,-22.6%
COc1ccc(CCCC(=O)Nc2ccccc2F)cc1,7.3%
O=C(Cn1nnc2ccccc21)c1cccc([N+](=O)[O-])c1,-15.8%
CCCCc1ccc(-c2ccc(Br)cc2O)nc1,9.9%
COCCNC(=O)CSC1=N/C(=C/c2ccc(Cl)c(Cl)c2)C(=O)N1c1ccccc1F,-2.9%
Cc1ccc(S(=O)(=O)CCC(=O)NCc2ccc(Cl)cc2)cc1,-16.7%
O=C(C1CCC(C(=O)N2CCCCC2)CC1)N1CCCCC1 (stereo unspecified),-9.0%
N#Cc1nc(-c2ccc(F)cc2)oc1NCc1cccc2c1OCO2,9.9%
CCCCNS(=O)(=O)c1ccc(N2CCCCS2(=O)=O)cc1,2.4%
O=C(Nc1ccccc1)c1cccc(N2CCCC2=O)c1,22.5%
CC1CC(C)CN(c2nc3c(c(=O)[nH]c(=O)n3C)n2CCCSc2nc3ccccc3s2)C1 (stereo unspecified),-20.4%
CCOc1ccc(CN2CCN(Cc3cccn3-c3ncccn3)CC2CCO)cc1 (stereo unspecified),4.7%
O=C(Nc1ccc(O)cc1)/C(=C/c1ccco1)NC(=O)c1ccccc1,-15.2%

# Four of the entries above in order of the VDR inh value, lowest first:
molecule,VDR inh
O=C(c1ccco1)N1CCN(C(=O)C2CC(c3ccc(Cl)cc3)=NO2)CC1 (stereo unspecified),-21.7%
O=C(Nc1ccc(O)cc1)/C(=C/c1ccco1)NC(=O)c1ccccc1,-15.2%
CCc1ccc(CN2CCC(n3nccc3NC(=O)c3cccc(F)c3)CC2)cc1,-4.9%
c1ccc(Cn2c(Nn3cnnc3)nc3ccccc32)cc1,-0.9%

# Next part:
SMILES,VDR inh
CCc1nn(CC(=O)NCC(C)c2ccccc2)c(=O)c2cc3c(OC)cccc3n12 (stereo unspecified),-4.4%
Cc1cc(C)n(-c2ccc(Cl)c(C(=O)O)c2)n1,13.4%
CCc1ccccc1NC(=O)N1CCN(c2nnc(C)c3c(C)n(-c4ccccc4)nc23)CC1,-1.4%
CCOC(=O)C1CCN(C(=O)Nc2cc(Cl)cc(Cl)c2)CC1,9.3%
O=C(NC(=O)c1cnccc1C(F)(F)F)Nc1ccccc1,7.7%
CC(=O)CC(c1ccccc1)S(=O)(=O)c1ccc([N+](=O)[O-])cc1 (stereo unspecified),11.8%
COc1cc(Nc2cc(C)nc3ncnn23)cc(OC)c1,4.0%
CCCCCCCOC(=O)c1nc(Cl)c(Cl)c(N)c1Cl,-15.7%
Cc1ccc(NC(=O)c2cc(N3C(=O)CCC3=O)ccc2N2CCCCC2)cc1,-17.9%
CCNC(=O)/C(C#N)=C/c1c(N2CCN(c3ccccc3)CC2)nc2ccccn2c1=O,1.0%
COc1ccc2c(c1)c1c(c(=O)n(-c3ccccc3C)c(=O)n1CC(=O)Nc1c(C)cccc1C)n2C,12.7%
O=C(NC1CCCCC1)C1CCC(=O)N(C2CC2)C1 (stereo unspecified),3.2%
O=C(O)c1cc(-c2ccc(O)cc2)on1,10.8%
O/N=C/c1nc2cc(Cl)ccc2o1,-7.5%
COc1cccc(OC)c1C(=O)N1CCOCC1,-2.9%
CCCN(CC(=O)Nc1ccccc1OC)Cc1c(O)ccc2ccccc12,?
CCOc1ccc(C(=O)Nc2ccc(N3CCN(C)CC3)cc2)cc1[N+](=O)[O-],19.8%
CCCOc1ccc(/C(O)=C2/C(=O)C(=O)N(CCCn3ccnc3)C2c2cccnc2)cc1 (stereo unspecified),-12.6%
COc1ccccc1CNS(=O)(=O)c1ccc2c(c1)N(C(C)=O)CC(C)S2 (stereo unspecified),0.2%
COc1cc(-c2noc(CSc3nc(-c4ccccc4)cc(=O)[nH]3)n2)cc(OC)c1OC,8.9%

# In another format: entries from further up.
VDR inh	Compound
1.0%	CCNC(=O)/C(C#N)=C/c1c(N2CCN(c3ccccc3)CC2)nc2ccccn2c1=O
12.7%	COc1ccc2c(c1)c1c(c(=O)n(-c3ccccc3C)c(=O)n1CC(=O)Nc1c(C)cccc1C)n2C

# Following part:
SMILES,VDR inh
CC1(C(=O)O)C=CC2(CCCCC2)N1C(=O)c1ccccc1 (stereo unspecified),-28.5%
CC1CCN(CC(O)Cn2c3ccccc3c3ccccc32)CC1 (stereo unspecified),-8.9%
COc1ccc(S(=O)(=O)N2CCN(c3ccccc3OC)CC2)cc1C(=O)N1CCCCC1,0.3%
COc1ccc(N2CCN(c3ncnc4c3nnn4Cc3ccccc3Cl)CC2)cc1,5.2%
COc1ccc(S(=O)(=O)Nc2c(C(=O)O)[nH]c3ccc(OC)cc23)c(OC)c1,-27.9%
CC(C)C(=O)NC(=S)/C=C1/N(C)c2ccccc2C1(C)C,-4.1%
CCCCn1c(N)c(N(CCOC)C(=O)c2ccc(S(=O)(=O)N3CCC(C)CC3)cc2)c(=O)[nH]c1=O,-0.5%
CN(N)C(=S)Nc1ccc(F)cc1,-9.6%
CCn1cc(C(=O)N[C@@H](C)C(=O)NCCCN2CCOCC2)c(=O)c2cc3c(cc21)OCO3,2.0%
CC(=O)N1CCc2cc(Br)cc(S(=O)(=O)CCC(=O)Nc3ccc(C)cc3Cl)c21,-6.8%
C=CCNC(=O)C1CC(=O)N(c2ccc(OCC(=O)NCc3ccccc3)cc2)C1 (stereo unspecified),-11.7%
Cc1nn(-c2ccc(N3CCOCC3)nn2)c(C)c1CCC(=O)NCc1ccccc1F,-10.4%&-0.7%
Cc1nsc2nc3c(F)c(F)c(F)c(F)c3cc12,-1.8%
COc1ccc(C(=O)N/C(=C\c2ccco2)C(=O)NCCN2CCOCC2)cc1,19.0%
CC(=O)Nc1ccc(NC(=O)CSc2nnc3ccc(-c4cccnc4)nn23)cc1,-1.3%
Cc1ccc(-n2nnnc2Sc2nc([N+](=O)[O-])nn2C)c(C)c1,-3.3%
CN(C)c1cccc(C(=O)N2CCCC(C(=O)c3cc(F)ccc3F)C2)c1 (stereo unspecified),17.6%
COc1cc(/C=C/C(=O)O)cc(S(=O)(=O)NNC(=O)c2cc(C)oc2C)c1OC,26.1%
CCc1ccc(CN(C(=O)c2cccs2)C2CCS(=O)(=O)C2)cc1 (stereo unspecified),-7.7%
Cc1ccc(O)c(NC(=S)NC(=O)c2ccc(-c3ccc(Cl)cc3)o2)c1,-18.0%
CCc1ccccc1N1C(=O)N(CC(=O)c2ccc(Cl)cc2)c2ccccc2S1(=O)=O,26.6%
O=C(COC(=O)COc1cccc2ccccc12)NCC(F)(F)F,9.6%
CCc1ccc(-n2c(SCc3ccccc3Cl)nc3[nH]ncc3c2=O)cc1,-3.5%
Nc1ccccc1Nc1nc2ccccc2[nH]1,-19.1%
Cc1ccccc1NC(=S)NC(NC(=O)c1ccco1)C(Cl)(Cl)Cl (stereo unspecified),-11.9%
O=C(Nc1cc([N+](=O)[O-])ccc1F)c1cccs1,-3.7%
COc1ccc(-n2c(O)c(C=Nc3ccccc3)c3ccccc3c2=O)cc1,19.8%
N[C@@H](C(=O)O)c1ccc(C(=O)O)c(O)c1,2.3%
CCSc1nnc(NC(=O)CSc2nnc(Cc3cccn3C)n2-c2ccc(F)cc2)s1,-10.5%
Cc1cnccc1CNC(=O)C1CCC(=O)N(Cc2ccc(Cl)cc2)C1 (stereo unspecified),-6.9%
COc1ccc(Cl)cc1N(C)C(=O)CCc1nc(-c2ccc(C)cc2)no1,19.5%
COc1ccc(NC(=O)C(c2ccc(OC)cc2)N(Cc2ccco2)C(=O)CC2NC(=O)NC2=O)cc1 (stereo unspecified),4.8%
CC(C)CN(C(=O)CN1CCN(S(=O)(=O)c2ccc3ccccc3c2)CC1)c1c(N)n(CC(C)C)c(=O)[nH]c1=O,-15.4%
COc1ccccc1C(=O)OCC(=O)Nc1ccccc1OC(F)F,-26.9%
Cc1ccc(CN2CCN(Cc3cn[nH]c3-c3cccc(F)c3)CC2CCO)o1 (stereo unspecified),6.5%
CCCN(CC1COc2ccccc2O1)C(=S)Nc1ccc(C)cc1 (stereo unspecified),-29.3%
CCN(CC(=O)Nc1ccc(NC(C)=O)cc1)C(=O)Cc1ccc(Cl)c(Cl)c1,9.1%
CCc1ccc(Nc2nc(C)cc(C)c2C(N)=O)cc1,-10.2%
Cc1ccccc1Cn1c2ccccc2c2cnn(CC(=O)NCCc3ccc(Cl)cc3)c(=O)c21,17.1%
CC(NC(=O)COC(=O)C1CCC1)c1ccccc1 (stereo unspecified),1.3%
CC(=O)OCC(=O)[C@H]1CC[C@H]2[C@@H]3CCC4=CC(=O)CC[C@]4(C)[C@H]3CC[C@]12C,?
O=C(Nc1ccccc1C(F)(F)F)c1cc(S(=O)(=O)N2CCOCC2)ccc1F,18.1%
CC(C)(C)c1ccc(-c2nnc3sc(-c4ccncc4)nn23)cc1,-10.0%
Cc1cccc(N2C(=O)c3ccc(C(=O)Nc4ccccn4)cc3C2=O)c1,1.6%
CCCCN(C(=O)/C=C/c1ccco1)c1c(N)n(CC(C)C)c(=O)[nH]c1=O,-4.8%
O=C(COC(=O)/C=C/c1ccc(S(=O)(=O)N2CCOCC2)cc1)NCc1ccc(Cl)cc1,12.3%
Cc1noc(C)c1S(=O)(=O)N1CCCC(C(=O)Nc2cccnc2)C1 (stereo unspecified),5.7%
O=C(O/N=C1\CCCc2ccccc21)C1CC1,-20.2%
O=[N+]([O-])c1cc2c(cc1/C=N/n1cnnc1)OCO2,-3.7%
COc1ccc(C(=O)N/C(=C\c2cc(OC)c(OC)cc2[N+](=O)[O-])C(=O)NCCO)cc1,-4.0%
C=CCN(CC=C)CC(O)CN(c1cc([N+](=O)[O-])ccc1OC)S(=O)(=O)c1ccccc1 (stereo unspecified),-11.7%
CCOc1ccc(NC(=S)N(CCN2CCOCC2)Cc2cc3cc4c(cc3[nH]c2=O)OCCO4)cc1,17.6%
Cc1cccc(NC(=O)C2CCN(S(=O)(=O)c3cccc4cccnc34)CC2)c1,-10.4%
COc1ccc(-c2noc(CN(C(=O)c3ccc(OC(C)=O)cc3)C(C)C)n2)cc1OC,16.9%
Nc1nc(Nc2ccccc2)n[nH]1,-0.6%
CCOc1ccccc1CN1CCNC(=O)C1CC(=O)N(C)CCc1ccccn1 (stereo unspecified),5.9%
Cc1[nH]c2ccc(C(=O)NCc3ccccn3)cc2c1C,10.1%
CCc1cccc(CC)c1NC(=O)COC(=O)C1(C)CC1(Cl)Cl (stereo unspecified),12.3%
CC1CCCCC1NS(=O)(=O)c1ccc2c(c1)CCC(=O)N2 (stereo unspecified),1.1%
C/C=C/c1ccc(OCCNCc2ccccc2)c(OC)c1,-23.3%

# A stretch from the list above:
SMILES,VDR inh
CCc1ccc(CN2CCC(n3nccc3NC(=O)c3cccc(F)c3)CC2)cc1,-4.9%
Cc1ccc(NC(=O)c2ccc(Cl)c(S(=O)(=O)NCC3CCCO3)c2)c(O)c1 (stereo unspecified),-0.8%
Cc1c(C)n2c(SCC(=O)N3CCCC3)nnc2[nH]c1=O,-1.2%

# Next section
SMILES,VDR inh
Cc1ccc(-c2nn(-c3ccccc3)cc2CN(Cc2ccccc2)C(=O)c2ccco2)o1,?
COc1cc(-c2nnc3sc(Cc4ccccc4)nn23)cc(OC)c1OC,-16.2%
Cc1cccc(C)c1NC(=O)COC(=O)C1CC1,-13.5%
O=C(NNC1=NS(=O)(=O)c2ccccc21)c1ccccc1,-3.7%
Cc1c(-c2ccc(Cl)cc2)c(=O)oc2c(CN3CCN(CCO)CC3)c(O)ccc12,13.7%

# Bioassay records deposited in PubChem BioAssay by National Center for Advancing Translational Sciences (NCATS).

# Some of the compounds tested; count on the stated rates, not on these rows.
